HIV TAR-Tat: TAR RNA-Tat peptide displacers, HIV-1, primary screen, biochemical, FRET, FAM/TAMRA-labeled Tat; HIV-1 TAR RNA, Tat peptide displacement FRET; hits give high values; z-score (test concentration not listed); actives 0.6% (n = 100,000);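 further: score is relative to mean and SD of negative controls; some compounds called inactive have numbers as strong as hits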
CDC25B-CDK2 inh: primary biochemical HTRF screen for blockers of M-phase inducer phosphatase 2 binding to CDK2/cyclin A; P30305+P24941; HTRF CDC25B-CDK2/CyclinA binding, anti-His/anti-Flag; hits give high values; z-score (concentration not given with the values); actives 0.72% (n = 94,000); AID 1259370, 2018;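 further: score is relative to mean and SD of negative controls; strong numbers were not always called active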
Active calls of the source: *; . = not tested or not shown.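 How the source made its calls: active means z-score from 3 up in half or more of its runs; inactive means the rest.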

SMILES | HIV TAR-Tat | CDC25B-CDK2 inh
Cc1nc(-c2cccc(F)c2)sc1CCNS(=O)(=O)c1ccc(F)cc1F | 0.28 | .
Cn1c(=O)c2c(-c3ccc(Br)cc3)n(C3CCCCC3)cc2n(C)c1=O | 2.16 | -2.49
COc1ccc(C2NC(=O)NC(O)(C(F)(F)F)C2C(=O)c2ccc(C)cc2)cc1 (stereo not drawn) | . | 1.07
CCOC(=O)c1cnc2nncn2c1N | 3.69 | -3.48
Cn1ccc2cc(S(=O)(=O)N3CCCC(C(=O)N4CCCCC4)C3)ccc21 (stereo not drawn) | 0.26 | .
c1ccc(-c2nnc(-c3ccccn3)n2-c2ccccn2)nc1 | 0.56 | -0.12
COC(=O)C1=C(C)Nc2nc(SCC(C)C)[nH]c(=O)c2C1c1ccncc1 (stereo not drawn) | 2.93 | -2.48
O=S(=O)(NCCc1cn2ccsc2n1)c1cccs1 | -0.73 | .
Cn1cc(C(=O)NCCN2CCOCC2)c2[nH]c(=O)n(-c3ccc(Cl)cc3)c(=O)c21 | -0.17 | .
Cc1nn(-c2ccccc2)c2sc(C(=O)N3CCC(C(N)=O)CC3)cc12 | . | -0.75
O=S(=O)(c1cc(Br)c(Cl)s1)N1CCCC1 | . | -1.96
O=S(=O)(NCCc1csc(-c2ccc(F)cc2)n1)c1cccc(F)c1 | 1.12 | .
COc1ccc(N2C(=O)C3CCCN3C2c2cccc(OC)c2OC)cc1 (stereo not drawn) | -0.51 | 0.09
Cc1ccc(CCNC(=O)c2ccc(C)c(NC3=NC4CS(=O)(=O)CC4S3)c2)cc1 (stereo not drawn) | 2.53 | -2.02
Cc1cccc(-c2nc3nc(C)cc(NCc4ccc5c(c4)OCO5)n3n2)c1 | -3.45 | .
CC1Cc2cc(S(=O)(=O)NCC3CCC(C(=O)NC4CCCC4)CC3)ccc2N1C(=O)C1CC1 (stereo not drawn) | 1.59 | .
O=C(NCCCN1CCOCC1)c1cn2c3c(ccc(Cl)c3c1=O)OCC2 | 1.78 | .
CCCOc1cccc(C2c3c(oc4ccccc4c3=O)C(=O)N2c2nncs2)c1 (stereo not drawn) | 2.7 | 0.51
O=C1N(CCc2ccccc2)c2ccc(Cl)cc2C1(O)c1c[nH]c2ccccc12 (stereo not drawn) | -1.15 | -1.66
Cc1oc2ncn3nc(-c4csc5c4CCCC5)nc3c2c1C | -2.01 | .
Cc1ccc(S(=O)(=O)n2c(=O)oc3cc(Cl)ccc32)cc1 | 0.03 | 0.1
O=C(CS(=O)(=O)c1cccc2nsnc12)Nc1ccccc1 | 1.57 | .
O=C(O)CCC(=O)NCCNC(=O)C1CCCNC1=O (stereo not drawn) | 0.05 | -0.38
CCOC(=O)C(NC(=O)c1ccco1)(Nc1cc(C)ccn1)C(F)(F)F (stereo not drawn) | . | -0.26
CCCCN(Cc1ccco1)C(=O)Cn1ncc2c(=O)oc3ccc(C)cc3c21 | 1.01 | -1.48
C=CCN1C(=O)C(O)(CC(=O)c2ccccc2OC)c2cc(Br)ccc21 (stereo not drawn) | 0.34 | 0.22
Cc1ccnc(-n2c(CCN3C(=O)c4ccccc4C3=O)nc3ccccc3c2=O)c1 | . | 0.87
Cn1cc(S(=O)(=O)N2CCOCC2)cc1C(=O)N1CCN(c2ccccn2)CC1 | 1.1 | .
COc1ccc(O)c(C2=NN3C(C2)c2ccccc2OC3c2cccc(F)c2)c1 (stereo not drawn) | -3.14 | 0.07
COc1cc(C2C(C#N)=C(N)Oc3n[nH]c(C)c32)ccc1OCc1ccccc1Cl (stereo not drawn) | -0.73 | 0.07
Cn1cccc1-c1cc2n(n1)CCCN2C(=O)CCC(=O)NCc1ccco1 | -1.19 | .
N#C/C(=C\c1cccn1S(=O)(=O)c1ccccc1)C(=O)c1ccccc1 | . | -1.03
COC(=O)C(C)Oc1cc(C)cc2oc(=O)cc(-c3ccccc3)c12 (stereo not drawn) | . | -1.36
O=C(Nc1ccc(F)cc1)N1CCN(c2ncccn2)CC1 | 0.91 | 0.22
CC(C)C(=O)NCC(c1ccco1)S(=O)(=O)c1cccs1 (stereo not drawn) | 2.09 | .
N#C/C(N)=C(\C#N)N=Cc1ccc(Cl)cc1 | . | -0.55
Cc1[nH]nc(Nc2ccc(O)cc2)c1[N+](=O)[O-] | 0.7 | -1.29
O=C(O)CCc1ccc(-c2cccs2)n1CCOc1ccccc1Cl | -4.32 | -1.19
Cc1ccccc1Cn1c(C(F)(F)F)nc2ccccc21 | 1.79 | -1.08
CC1CN(C(=O)Cn2cc(SCC(=O)Nc3ccc4c(c3)OCO4)c3ccccc32)CC(C)O1 (stereo not drawn) | 1.21 | .
O=C1C2C(c3ccc(Cl)cc3)OC3(C(=O)c4ccccc4C3=O)C2C(=O)N1CCc1ccccc1 (stereo not drawn) | -0.3 | 0.07
COc1ccc(OC)c(CNS(=O)(=O)c2cc(-c3cc(C)no3)ccc2OC)c1 | 0.36 | .
OCc1nc2ccccc2n1CC(O)COc1ccc(F)cc1 (stereo not drawn) | 2.28 | -0.94
O=C(O)c1ccccc1C(=O)c1ccc(-c2ccccc2)cc1 | 2.71 | -1.52
Cc1cc2c(cc3c(SCC(=O)Nc4ccc(C)c(C)c4)nnc(C)n32)o1 | 2.67 | .
O=C(CSc1nc(O)cc(=O)[nH]1)N1c2ccccc2CCc2ccccc21 | -0.1 | -1.91
O=C(Cn1ncn2c(cc3sccc32)c1=O)NC1CCCCCC1 | . | -3.61
O=C(NCc1cccn1Cc1ccccc1)Nc1ccc(Br)cc1F | -1.18 | .
COc1ccc(-c2nnc3ccc(SCc4ccccn4)nn23)cc1 | . | -1.66
Cc1ccccc1C1NC(=O)NC2=C1C(=O)CCC2 (stereo not drawn) | . | -0.29
Cc1cc(C)cc(-n2c(SCC(=O)NCc3ccco3)nc3c(c2=O)SC(C)C3)c1 (stereo not drawn) | 0.29 | -1.24
Cc1csc2ncc(C(=O)NC(C)Cc3ccco3)c(=O)n12 (stereo not drawn) | 1.23 | .
CCN1C(=O)C2(c3ccccc31)N1CC3(C)CN2CC(C)(C1)C3=O (stereo not drawn) | . | -0.26
CCOC(=O)C1CCN(C(=O)COc2ccc3c(c2)C=CC(C)(C)O3)CC1 | 0.08 | 0.23
O=C(c1cc2c(s1)-c1ccccc1OC2)N1CCCc2ccccc21 | 0.13 | -0.62
Nc1c(-c2ccccc2)nc2ccccn12 | -3.41 | -0.12
Cc1cc(=O)nc2c3ccccc3n(CC(=O)NCCN3CCCCC3C)n12 (stereo not drawn) | -1.67 | -0.49
CCn1c(SCC(=O)Nc2nnc(C)s2)nc2c(c1=O)SCC2 | 1.38 | 1.72
Cc1ccc(S(=O)(=O)Nc2ccc3[nH]c(=O)[nH]c3c2)c(C)c1 | 0.33 | -0.59
Cc1cc2ccccc2n1CCNC(=O)C1CC1 | -1.7 | -0.12

More records.
SMILES | HIV TAR-Tat | CDC25B-CDK2 inh
CC1(C)CC(=O)C2=C(C1)Nc1cc3c(cc1C2c1ccc(Cl)cc1)OCO3 (stereo not drawn) | 1.17 | -0.2
O=S(=O)(NCc1ccccc1Cl)c1cnc[nH]1 | 1.1 | 1.58
O=C(O)C(Cc1ccccc1)n1cccc1 (stereo not drawn) | 0.62 | .
O=C(Nc1nc2ccc(F)cc2s1)c1nn(-c2ccccc2)ccc1=O | 0.07 | -1.04
CC1=NN(c2ccccc2)C(C2=C(C)CCCC2(C)C)C1 (stereo not drawn) | 0.86 | -1.73
NC(=O)COc1ccc(=O)n(-c2ccccc2)n1 | -1.37 | -2.74
COC(=O)c1sccc1NC(=O)Nc1cn(C)c(=O)c2ccccc12 | 0.17 | .
COc1ccccc1NC(=O)N1CCC(N(C)C2CCCC2)CC1 | 0.66 | 5.26
Fc1ccc(CNc2c(-c3ccc(F)cc3)nc3ncccn23)cc1 | 0.17 | .
CC(C)c1ccc(S(=O)(=O)c2cc3cc(Cl)ccc3oc2=O)cc1 | . | -2.95
CCC(O)(c1ccc(F)cc1)C(CN1CCCC1)c1ccccc1 (stereo not drawn) | 0.06 | -1.22
O=C(Nc1cccnc1)c1cc(=O)c2cc(Cl)ccc2o1 | 1.4 | -1.82
Cn1c(-c2nnc(SCC(=O)NCc3ccco3)o2)cc2ccccc21 | 1.15 | -1.2
CCc1nc2ccccc2n1CC(=O)O | . | -0.81
Cn1c(=O)c2c3no[n+]([O-])c3c(=O)n(-c3ccccc3)c2n(C)c1=O | . | -1.54
CC(CS(=O)(=O)c1ccc2c(c1)NC(=O)C(C)S2)C(=O)Nc1ccc(F)cc1 (stereo not drawn) | -0.77 | .
CCCS(=O)(=O)c1ncc(Cl)c(C(=O)Nc2sc3c(c2C(=O)NC)CCCC3)n1 | 2.75 | -3.36
O=C(c1ccc(S(=O)(=O)NC2CCCc3ccccc32)s1)N1CCCC1 (stereo not drawn) | 0.16 | .
CSc1nnc2c(n1)OC(C)=Nc1ccc(Cl)cc1-2 | -0.92 | -1.4
O=C(c1csnn1)N1CCN(c2cccc(Cl)c2)CC1 | 0.82 | -1.21
C=CCOC(=O)C1=C(C)Nc2nc(SCCCC)[nH]c(=O)c2C1c1cccc(F)c1 (stereo not drawn) | 1.93 | 0.88
CCC1CCCCN1CCCNC(=O)c1c(C)oc2ncnc(N3CCOCC3)c12 (stereo not drawn) | -0.23 | .
CN(/N=C/c1ccc(O)cc1O)c1ncc(C(F)(F)F)cc1Cl | . | 1.21
CCOCCCNC(=O)C1CCN(S(=O)(=O)N2CCCC2)CC1 | 1.41 | .
O=c1c(S(=O)(=O)c2ccc(Cl)cc2)c[nH]c2cc3c(cc12)OCO3 | 1.48 | 0.29
Cc1ccc2c(C(=O)O)cc(-c3ccc4c(c3)OCO4)nc2c1 | . | 0.65
CN(CC(=O)NCc1ccco1)S(=O)(=O)c1ccc2c(c1)CCC(=O)N2 | . | -1.71
Cn1c(=O)c2c(SCC(=O)N3CCC(Cc4ccccc4)CC3)nc(C3CC3)nc2n(C)c1=O | 0.22 | .
O=C(CN1C2=NCCN2c2ccccc21)c1cccc(Br)c1 | -0.75 | -0.53
O=C(Nc1cc(C(F)(F)F)cc(C(F)(F)F)c1)c1ccc(Br)o1 | . | -1.9
Cc1c(C(=O)NCCc2ccsc2)sc2nc3n(c(=O)c12)CCCCC3 | 2.55 | .
CN(Cc1ccco1)S(=O)(=O)c1ccc2c(c1)NC(=O)CCS2 | 2.61 | .
CCCc1[nH]nc2c1C(c1ccccc1)C(C#N)=C(N)O2 (stereo not drawn) | 0.43 | -1.36
Cn1nnnc1SCCNCc1ccccc1F | -0.23 | -0.14
CN(C)C1=C(C(=O)Nc2ccc(F)cc2)S(=O)(=O)c2ccccc21 | 1.67 | .
O=C1CC(c2ccccc2F)c2scc(-c3ccc(Cl)cc3)c2N1 (stereo not drawn) | 1.77 | .
O=C(NC1CCCCCC1)C(=O)c1c[nH]c2ccccc12 | . | -1.73
O=C(Cn1c(=O)oc2cc(S(=O)(=O)N3CCCC3)ccc21)NCc1ccco1 | 1.9 | 0.11
Cc1nc(N2C(=O)c3oc4ccccc4c(=O)c3C2c2cccc(Cl)c2)sc1C (stereo not drawn) | 2.27 | -1.14
O=C(NCc1ccccn1)c1c(O)c2cccc3c2n(c1=O)CCC3 | 2.49 | .
O=C(NNC(=O)c1cccc(C(F)(F)F)c1)c1ccncc1 | . | -1.58
NC(=O)c1c(NC(=O)c2ccccc2C(=O)O)sc2c1CCCC2 | 2.04 | -2.03
CCc1cc(=O)oc2c(C)c(OCC(=O)OC(C)(C)C)ccc12 | . | -0.11
C=CCn1c(-c2ccc(O)cc2)n[nH]c1=S | . | -0.83
O=C(Nc1ccc(C(=O)NCc2cccs2)cc1)C1=CSCCO1 | 2.46 | .
O=C(CN1CCc2ccccc2C1)c1ccc2cc[nH]c2c1 | . | -6.74
CCc1ccc2[nH]cc(S(=O)(=O)c3ccc(F)cc3)c(=O)c2c1 | -0.06 | -2.03
COCCCn1c(SCc2nc(-c3cccc(Cl)c3)no2)nc2cc3c(cc2c1=O)OCO3 | 2.21 | .
CC(C)C(=O)N1c2ccccc2NC2=C(C(=O)CC(C)(C)C2)C1c1ccccc1 (stereo not drawn) | 1.43 | .
Cc1ccc(N(C)S(=O)(=O)c2cc(-c3onc(C)c3C)ccc2C)cc1 | 1.43 | .

Of the compounds above, 13 have an aryl thioether with sulfur outside any ring:
SMILES | HIV TAR-Tat | CDC25B-CDK2 inh
COC(=O)C1=C(C)Nc2nc(SCC(C)C)[nH]c(=O)c2C1c1ccncc1 (stereo not drawn) | 2.93 | -2.48
CC1CN(C(=O)Cn2cc(SCC(=O)Nc3ccc4c(c3)OCO4)c3ccccc32)CC(C)O1 (stereo not drawn) | 1.21 | .
Cc1cc2c(cc3c(SCC(=O)Nc4ccc(C)c(C)c4)nnc(C)n32)o1 | 2.67 | .
O=C(CSc1nc(O)cc(=O)[nH]1)N1c2ccccc2CCc2ccccc21 | -0.1 | -1.91
COc1ccc(-c2nnc3ccc(SCc4ccccn4)nn23)cc1 | . | -1.66
Cc1cc(C)cc(-n2c(SCC(=O)NCc3ccco3)nc3c(c2=O)SC(C)C3)c1 (stereo not drawn) | 0.29 | -1.24
CCn1c(SCC(=O)Nc2nnc(C)s2)nc2c(c1=O)SCC2 | 1.38 | 1.72
Cn1c(-c2nnc(SCC(=O)NCc3ccco3)o2)cc2ccccc21 | 1.15 | -1.2
CSc1nnc2c(n1)OC(C)=Nc1ccc(Cl)cc1-2 | -0.92 | -1.4
C=CCOC(=O)C1=C(C)Nc2nc(SCCCC)[nH]c(=O)c2C1c1cccc(F)c1 (stereo not drawn) | 1.93 | 0.88
Cn1c(=O)c2c(SCC(=O)N3CCC(Cc4ccccc4)CC3)nc(C3CC3)nc2n(C)c1=O | 0.22 | .
Cn1nnnc1SCCNCc1ccccc1F | -0.23 | -0.14
COCCCn1c(SCc2nc(-c3cccc(Cl)c3)no2)nc2cc3c(cc2c1=O)OCO3 | 2.21 | .
